Vaccinia inh: blocks a specific stage of Vaccinia orthopoxvirus infection, primary screen, cell-based, single point. 89,000 compounds, 0.01% hits. AID 1053133, 2014. Vaccinia-infected cells, mCherry/Venus stage reporter fluorescence; active compounds read low; some inactives read as strong as hits. activity change (mCherry), % (test concentration not listed);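 active = mCherry past -33% and 40 or more points under the early reporter, replicates agreeing; inconclusive = past -33% without that gap or agreement; tested in A549 cells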;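 note: scaled between vehicle wells and reference inhibitor wells; 23 nL library stock went into each well; one replicate is shown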
Vaccinia inh Venus: second read-out of Vaccinia inh, no call of its own (marks repeat the call); activity change (Venus), %; measured here: Venus reporter, other viral stage;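 negative = less Venus signal; first of two replicates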
* hit, by the source's call; ? = inconclusive; nt = not tested or not shown; & = joins results of further samples.

compound,Vaccinia inh Venus,Vaccinia inh
COc1ccc(-c2cnc3c(c2)C(=O)N([C@H](C)CO)C[C@H](C)[C@H](CN(C)Cc2ccccc2)O3)cc1,-24&-16,-21&-21
O=C(NC[C@H]1[C@H](c2ccccc2)[C@H](CO)N1C(=O)Cc1ccncc1)C1CCC1,5,3
COc1ccccc1S(=O)(=O)N1C[C@H](O)COC[C@H]2O[C@H](CC(=O)O)CC[C@@H]21,9,5
O=C(Cc1ccccc1)N[C@H]1C=C[C@H](CC(=O)N2CCOCC2)O[C@H]1CO,11,5
COc1ccc(NC(=O)Nc2ccc3c(c2)C(=O)N([C@H](C)CO)C[C@@H](C)[C@@H](CN(C)S(=O)(=O)c2ccc(Cl)cc2)O3)cc1,-20,-24
COc1ccc(CN2CC3(CN(C(=O)C4CCC4)C3)c3c(n(C)c4cc(OC)ccc34)[C@H]2CO)cc1,0,-1
O=C(C[C@@H]1C[C@H]2c3cc(NC(=O)Nc4ccc(C(F)(F)F)cc4)ccc3O[C@H]2[C@@H](CO)O1)NCc1ccc2c(c1)OCO2,7,14
CCNC(=O)[C@@H]1[C@@H](CO)[C@@H]2Cn3c(ccc(-c4cccc(OC)c4)c3=O)[C@@H]2N1C(=O)NC(C)C,18,14
C[C@@H]1CN([C@@H](C)CO)C(=O)c2cc(/C=C/c3ccccc3)cnc2O[C@@H]1CN(C)C(=O)CN(C)C,-10,-6
C/C=C/c1cnc2c(c1)C(=O)N([C@@H](C)CO)C[C@@H](C)[C@H](CN(C)C(=O)c1cnccn1)O2,1,8
C[C@@H]1CN([C@H](C)CO)C(=O)c2cc(NS(C)(=O)=O)ccc2O[C@@H]1CN(C)Cc1ccc(-c2ccccc2)cc1,-24,-15
Cc1noc(C)c1NC(=O)N(C)C[C@H]1Oc2ccc(NS(=O)(=O)c3cccs3)cc2C(=O)N([C@@H](C)CO)C[C@@H]1C,3,11
Cc1noc(C)c1S(=O)(=O)Nc1ccc2c(c1)C(=O)N([C@@H](C)CO)C[C@@H](C)[C@H](CN(C)S(C)(=O)=O)OCCCC[C@@H](C)O2,9,15
CC(=O)N(C)C[C@H]1Oc2ncc(-c3cncnc3)cc2C(=O)N([C@H](C)CO)C[C@@H]1C,12,19
O=C(Nc1ccc(F)cc1)N1C[C@H]2[C@@H](c3ccccc31)[C@@H](CO)N2C(=O)c1ccc(F)cc1,9,4
C[C@H](CO)N1C[C@H](C)[C@@H](CN(C)C(=O)NC2CCCCC2)Oc2c(NS(=O)(=O)c3ccc(Cl)cc3)cccc2C1=O,-3,9
CN1CCN(C(=O)[C@@H]2[C@@H](CO)[C@@H]3Cn4c(ccc(/C=C/c5ccccc5)c4=O)[C@@H]3N2CC2CC2)CC1,1,-5
Cc1ccc(S(=O)(=O)Nc2ccc3c(c2)CC(=O)N([C@@H](C)CO)C[C@H](C)[C@H](CN(C)CC2CC2)O3)cc1,3,-6
COc1ccc(NC(=O)Nc2ccc3c(c2)C(=O)N([C@@H](C)CO)C[C@@H](C)[C@H](CN(C)C(=O)Nc2ccccc2)OCCCC[C@@H](C)O3)cc1,3,-7
C[C@@H]1CN([C@H](C)CO)C(=O)Cc2cc(NC(=O)c3ccncc3)ccc2O[C@@H]1CN(C)Cc1ccc2c(c1)OCO2,-1,-11

Part of the list above, field by field:
> C[C@@H]1CN([C@H](C)CO)C(=O)c2cc(NS(C)(=O)=O)ccc2O[C@@H]1CN(C)Cc1ccc(-c2ccccc2)cc1
  Vaccinia inh Venus = -24; Vaccinia inh = -15

> Cc1noc(C)c1NC(=O)N(C)C[C@H]1Oc2ccc(NS(=O)(=O)c3cccs3)cc2C(=O)N([C@@H](C)CO)C[C@@H]1C
  Vaccinia inh Venus = 3; Vaccinia inh = 11

> Cc1noc(C)c1S(=O)(=O)Nc1ccc2c(c1)C(=O)N([C@@H](C)CO)C[C@@H](C)[C@H](CN(C)S(C)(=O)=O)OCCCC[C@@H](C)O2
  Vaccinia inh Venus = 9; Vaccinia inh = 15

> CC(=O)N(C)C[C@H]1Oc2ncc(-c3cncnc3)cc2C(=O)N([C@H](C)CO)C[C@@H]1C
  Vaccinia inh Venus = 12; Vaccinia inh = 19

Returning to the listing, starting two compounds before the break.
compound,Vaccinia inh Venus,Vaccinia inh
COc1ccc(NC(=O)Nc2ccc3c(c2)C(=O)N([C@@H](C)CO)C[C@@H](C)[C@H](CN(C)C(=O)Nc2ccccc2)OCCCC[C@@H](C)O3)cc1,3,-7
C[C@@H]1CN([C@H](C)CO)C(=O)Cc2cc(NC(=O)c3ccncc3)ccc2O[C@@H]1CN(C)Cc1ccc2c(c1)OCO2,-1,-11
CC(C)C#Cc1cnc2c(c1)C(=O)N([C@H](C)CO)C[C@@H](C)[C@@H](CN(C)C(=O)c1ccccc1F)O2,10,2
COc1ccc(NC(=O)N(C)C[C@@H]2Oc3ccc(NC(=O)Nc4ccc(F)cc4)cc3C(=O)N([C@@H](C)CO)C[C@@H]2C)cc1,6,10
CCNC(=O)C[C@H]1CC[C@@H]2[C@H](COc3ccc(NC(=O)c4cccc(OC)c4)cc3C(=O)N2C)O1,14,14
CC(C)CC#Cc1ccc2c(c1)O[C@H](CN(C)C(=O)c1cnccn1)[C@H](C)CN([C@H](C)CO)S2(=O)=O,-20,-9
COc1ccc(NC(=O)N(C)C[C@H]2OCCCC[C@@H](C)Oc3ccc(NC(=O)CCCN(C)C)cc3C(=O)N([C@@H](C)CO)C[C@H]2C)cc1,24,36
O=C(Nc1cc(Br)ccc1C(=O)NCc1cccc(O)c1)c1ccccc1,-31,-30
N#C[C@H]1[C@@H](c2ccc(-c3cccc(F)c3)cc2)[C@@H](CO)N1S(=O)(=O)c1cccc(F)c1,nt,?
COc1ccc2c3c(n(C)c2c1)[C@@H](CO)NCC31CCN(Cc2ccncc2)CC1,-8,-12
COc1cccc(-c2cccc(-c3nc(C(=O)N(C)C)cc4c3[C@H](CCO)N([S@@](=O)C(C)(C)C)C4)c2)c1,32,3
CCCC(=O)Nc1ccc2c(c1)OC[C@@H](C)N(Cc1cncnc1)C[C@@H](C)[C@@H](OC)CN(C)C2=O,-4,-4
C[C@H]1CN([C@@H](C)CO)C(=O)c2cc(NC(=O)C3CC3)ccc2O[C@@H]1CN(C)S(=O)(=O)c1cn(C)cn1,4,15
CNC(=O)C[C@@H]1CC[C@@H]2[C@@H](COc3ccc(NC(=O)c4ccc(F)cc4)cc3C(=O)N2C)O1,1,0
C[C@@H]1CN([C@@H](C)CO)C(=O)c2cc(-c3ccc(C(=O)N(C)C)cc3)cnc2O[C@H]1CN(C)Cc1ccc(C(=O)O)cc1,7,21
O=C(C[C@@H]1C=C[C@@H](NC(=O)C2CCC2)[C@@H](CO)O1)NCc1ccncc1,4,15
CN1C(=O)c2cc(NC(=O)Nc3ccccc3)ccc2OC[C@@H]2O[C@@H](CC(=O)NC3CCC3)CC[C@H]21,1,-1
C[C@@H]1CCCCO[C@H](CN(C)C(=O)Nc2cccc3ccccc23)[C@H](C)CN([C@@H](C)CO)C(=O)c2cc(NC(=O)CCCN(C)C)ccc2O1,17,21
O=C(Cc1ccccn1)NCC[C@@H]1CC[C@@H](NS(=O)(=O)c2ccc(F)cc2)[C@@H](CO)O1,6,-7
O=C(Nc1cccc(F)c1)N1C[C@@H]2[C@H](c3ccccc31)[C@@H](CO)N2C(=O)Cc1ccccn1,-13,-23
C[C@@H]1CN([C@H](C)CO)C(=O)c2cc(NS(=O)(=O)c3ccccc3)ccc2O[C@@H]1CN(C)C(=O)Nc1ccccc1,11,15
Cc1cc(C(=O)Nc2cccc3c2O[C@H](CN(C)Cc2ccncc2)[C@@H](C)CN([C@@H](C)CO)C3=O)n(C)n1,0,12
C[C@@H]1CCCCO[C@@H](CN(C)C(=O)Nc2ccccc2)[C@@H](C)CN([C@H](C)CO)C(=O)c2cc(NS(=O)(=O)c3ccccc3)ccc2O1,-12,4
CO[C@@H]1CN(C)C(=O)c2ccc(NC(C)=O)cc2OC[C@H](C)N(CC2CCCCC2)C[C@@H]1C,8,-5
C[C@H](CO)N1C[C@H](C)[C@@H](CN(C)C(=O)Nc2ccccc2)Oc2ccc(NC(=O)Nc3ccccc3)cc2C1=O,2,4
COc1ccc(S(=O)(=O)N(C)C[C@@H]2OCCCC[C@@H](C)Oc3ccc(NC(=O)Nc4ccc5c(c4)OCO5)cc3C(=O)N([C@H](C)CO)C[C@@H]2C)cc1,12,18
C[C@H]1CN([C@@H](C)CO)C(=O)c2ccccc2-c2ccccc2CO[C@H]1CN(C)C(=O)c1cc(Cl)cc(Cl)c1,-23,-30
O=S(=O)(c1ccccc1F)N1CCCCN2[C@H](CO)[C@H](c3ccc(-c4cccnc4)cc3)[C@H]2C1,-8,-6
O=C(NCC[C@@H]1CC[C@@H](NC(=O)C2CCC2)[C@@H](CO)O1)c1cnccn1,9,9
COC(=O)C[C@H]1C=C[C@@H](NC(=O)Nc2ccc(C(F)(F)F)cc2)[C@@H](CO)O1,0,-3
C=CCN1CCCc2c(-c3ccc(OCCO)cc3)noc2-c2cc(OC)c(OC)cc2CC1,23,15
N#C[C@@H]1[C@@H](c2ccc(/C=C/c3ccccc3)cc2)[C@@H](CO)N1C(=O)C1CCCC1,19,16
CCCC#Cc1ccc([C@H]2[C@H]3CN(S(C)(=O)=O)CCCCN3[C@H]2CO)cc1,-13,-14
CO[C@H]1CN(C)C(=O)c2cc(NC(=O)Nc3cccc(Cl)c3)ccc2OC[C@@H](C)NC[C@@H]1C,nt,?
O=C(C[C@H]1C[C@@H]2c3cc(NC(=O)NC4CCCC4)ccc3O[C@@H]2[C@@H](CO)O1)NCCN1CCCCC1,8,10
COCC(=O)N1CC[C@@H]2[C@H]1c1cc(C#Cc3ccc(OC)cc3)ccc1N[C@@H]2CO,6,4
C[C@@H]1CCCCO[C@H](CN(C)Cc2ccc3c(c2)OCO3)[C@H](C)CN([C@H](C)CO)C(=O)c2cc(NC(=O)CCC(F)(F)F)ccc2O1,nt,?
O=C(Cc1ccncc1)N1C[C@@H]2N[C@H](C1)C2c1ccc(-c2cccc(F)c2)cc1 (stereo partly drawn),-7,0
COc1ccccc1C#Cc1cnc2c(c1)C(=O)N([C@H](C)CO)C[C@@H](C)[C@@H](CN(C)C(=O)CN(C)C)O2,-4,-1
C[C@@H]1CN([C@@H](C)CO)C(=O)c2cc(NC(=O)Nc3ccc(F)cc3)ccc2O[C@@H]1CN(C)Cc1ccncc1,8,-10
OC[C@@H]1[C@H]2c3ccccc3NC[C@H]2N1Cc1cccnc1,-1,3
COc1ccc(NC(=O)N(C)C[C@H]2Oc3cc(C#CCN(C)C)ccc3S(=O)(=O)N([C@H](C)CO)C[C@H]2C)cc1,2,12
O=C(NC1CCCC1)N1CC2(C1)[C@@H](c1ccccc1)[C@@H](CO)N2CC1CCOCC1,10,18
Cc1noc(C)c1NC(=O)N(C)C[C@H]1Oc2c(NC(=O)Nc3ccc(F)cc3)cccc2C(=O)N([C@H](C)CO)C[C@H]1C,10,15
CS(=O)(=O)Nc1ccc2c(c1)[C@H]1C[C@@H](CC(=O)NCc3ccccc3)O[C@@H](CO)[C@H]1O2,-8,-3
CC(C)NC(=O)N(C)C[C@H]1Oc2ccc(NC(=O)C3CC3)cc2C(=O)N([C@H](C)CO)C[C@@H]1C,18,16
C[C@@H]1CN([C@H](C)CO)C(=O)c2cc(NC(=O)NC3CCCCC3)ccc2O[C@@H](C)CCCCO[C@@H]1CN(C)C(=O)CCC(F)(F)F,5,7
COc1ccc(-c2ccc([C@H]3[C@H](CO)N4CCCCN(C(=O)c5ccc6c(c5)OCO6)C[C@@H]34)cc2)cc1,-36,-13
C[C@@H]1CN([C@@H](C)CO)C(=O)c2cc(NC(=O)Nc3ccc(C(F)(F)F)cc3)ccc2O[C@@H](C)CCCCO[C@@H]1CN(C)C(=O)Nc1ccccc1,16,15
COc1ccc(CN(C)C[C@@H]2Oc3c(NC(=O)NC(C)C)cccc3C(=O)N([C@@H](C)CO)C[C@@H]2C)cc1,-6,-14
Cc1noc(C)c1NC(=O)N(C)C[C@H]1Oc2c(NC(=O)NC3CCCCC3)cccc2C(=O)N([C@H](C)CO)C[C@@H]1C,14,23
CCCNC(=O)[C@@H]1[C@@H](CO)[C@@H]2Cn3c(ccc(-c4ccc(F)cc4)c3=O)[C@H]1N2Cc1ccccc1F,5,1
CN(C)CCCNC(=O)C[C@@H]1CC[C@H](NC(=O)Cc2cccnc2)[C@@H](CO)O1,14,0
CO[C@@H]1CN(C)C(=O)c2cc(NS(C)(=O)=O)ccc2OC[C@@H](C)N(C)C[C@@H]1C,3,3
COc1ccc(NC(=O)N(C)C[C@@H]2Oc3ccc(N(C)C)cc3CC(=O)N([C@@H](C)CO)C[C@@H]2C)cc1,9,22
COCC(=O)N1CC2(C1)[C@H](c1ccc(-c3ccc(F)cc3)cc1)[C@@H](CO)N2C(C)=O,0,1
CCC(=O)N1C[C@H](C)[C@H](OC)CN(C)C(=O)c2ccc(NC(=O)Nc3cccc(F)c3)cc2OC[C@H]1C,0,-8
O=C(C[C@@H]1CC[C@@H]2[C@H](COC[C@H](O)CN2Cc2ccc3c(c2)OCO3)O1)Nc1ccc(-c2ccccc2)cc1,nt,?
O=C(c1cccc(F)c1)N1CC(=O)N2[C@@H](CO)[C@H](c3ccc(-c4cccnc4)cc3)[C@@H]2C1,-2,8
C[C@H]1CN([C@@H](C)CO)C(=O)Cc2cc(NC(=O)C3CC3)ccc2O[C@@H]1CN(C)Cc1ccc2c(c1)OCO2,13,4
Cc1ccc(S(=O)(=O)NCC[C@@H]2CC[C@H](NC(=O)CCN3CCCCC3)[C@@H](CO)O2)cc1,7,8

Compound activity: PubChem, Broad Institute

Some of the compounds tested; rates above refer to the full screens.
